Compound activity deposited in PubChem BioAssay by several laboratories.
Rce1 inh – yeast Rce1p protease inhibitors, primary screen, biochemical, fluorescence, cell-free homogeneous | yeast membranes, quenched prenylated peptide cleavage fluorescence | calls only | 290,000 tested, 0.27% active;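 active = fall in fluorescence gain of 50% or more versus controls, with final raw signal at or below 3038400; inconclusive = same 50% fall but final raw signal above 3038400; inactive = fall in fluorescence gain under 50%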;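 also: plate controls were neutral control wells for no effect and wells lacking membranes for full effect; tested at 10 µM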
PABP FP inh – PABP poly(A) RNA binding inhibitors, primary screen, biochemical, fluorescence polarization, uHTS | AID 2014, 2009 | inhibition, % at 35 µM | 290,000 tested, 1% active;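 active = 50% or more with normal probe brightness, or confirmed in later tests; inconclusive = above 50% with abnormal brightness, or retests that disagree; inactive = below 50% or failed in later tests; about a fifth of its hits are not listed in these tables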;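 also: calls also rest on retests at 20 µM and on dose response follow-up; controls were probe without protein and protein plus probe with vehicle; some compounds called inactive have numbers as strong as hits; many hits fall short of the cut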
Target sequence (P11940 whole entry, looked up): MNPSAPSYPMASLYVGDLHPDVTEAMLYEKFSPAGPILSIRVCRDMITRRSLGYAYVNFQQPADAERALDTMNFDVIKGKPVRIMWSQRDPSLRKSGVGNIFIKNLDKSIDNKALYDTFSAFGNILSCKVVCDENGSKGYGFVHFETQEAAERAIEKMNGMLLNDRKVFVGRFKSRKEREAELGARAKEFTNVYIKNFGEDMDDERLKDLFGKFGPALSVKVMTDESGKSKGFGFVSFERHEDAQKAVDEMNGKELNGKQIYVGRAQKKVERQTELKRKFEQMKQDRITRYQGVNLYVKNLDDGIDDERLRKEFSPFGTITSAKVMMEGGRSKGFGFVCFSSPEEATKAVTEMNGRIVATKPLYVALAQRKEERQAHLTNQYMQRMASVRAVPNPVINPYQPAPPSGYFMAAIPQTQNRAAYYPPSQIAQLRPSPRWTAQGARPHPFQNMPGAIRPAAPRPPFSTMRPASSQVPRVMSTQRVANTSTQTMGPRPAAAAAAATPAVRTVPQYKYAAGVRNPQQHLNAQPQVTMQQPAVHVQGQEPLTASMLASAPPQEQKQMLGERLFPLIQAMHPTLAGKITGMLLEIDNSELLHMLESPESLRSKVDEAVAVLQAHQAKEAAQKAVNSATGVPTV
CSC inhib – cancer stem cell viability inhibitors, primary screen, luminescence; cancer stem cell-like cells viability; inhibition, % at 7.5 µM; 300,000 tested, 1.1% active; AID 2717, 2010;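 active = mean at 75% or more and at least half the replicates too; inconclusive = mean and replicates disagree; tested in HMLE shEcad cells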;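 also: 0% = median of negative and 100% = median of positive control wells; the first replicate is given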
MT1-MMP act inh – blockers of MT1-MMP proenzyme processing, primary screen, HT1080 RFP-PRO-GFP cells, GFP/RFP fluorescence | Matrix metalloproteinase-14 (Homo sapiens), P50281 | GFP/RFP ratio fluorescence, overnight; percent of plate control window, DMSO zero | GFP/RFP ratio change, % at 20 µM | 360,000 tested, 0.061% active;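 active = GFP/RFP ratio change of at least 30% with cell ATP level not reduced by more than half and red fluorescence within 50% of control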; also: strong numbers were not always called active
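Assay system – RFP-PRO-GFP reporter HT1080 cells · Compound dosing – single dose of 20 µM compound, 1% DMSO final · Incubation – overnight compound exposure at 37 °C · Measure – GFP/RFP fluorescence ratio · Benchmarks – DMSO wells and RFP-L50D-GFP cells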
UUG fidelity – modulators of yeast start codon fidelity, primary screen, whole organism, S. cerevisiae, single point, plate reader; S. cerevisiae UUG-firefly luciferase reporter, luminescence/redox ratio; activity score, % at 18.7 µM; 350,000 tested, 0.13% active;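 active = replicate mean at a twofold rise or more, about +100% in these data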;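 also: firefly luciferase made from a UUG start codon reports start codon fidelity; reporter light over untreated wells divided by growth signal over untreated wells; some hits fall short of that in this replicate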
Env fusion inh – inhibitors of HIV-1 Env-driven cell-cell fusion, primary screen, HeLa-JRFL effector, CEM21 target cells, luciferase | 360,000 tested, 1.1% active | inhibition, % at 12.3 µM;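 active = mean replicate inhibition score of at least 50 and every replicate individually at or above 50; inconclusive = only one of the two criteria met; inactive = mean below 50 and not all replicates reaching 50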;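 also: 0% = plate neutral controls and 100% = maraviroc near 300 nM; one replicate is shown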
eIF4H FP inh – human eIF4H binding inhibitors, primary screen, translation initiation inhibitor project, biochemical, uHTS, fluorescence polarization | Eukaryotic translation initiation factor 4H (Homo sapiens), Q15056 | eIF4H fluorescence polarization binding assay | inhibition, % at 35 µM | 290,000 tested, 0.94% active | AID 2012, 2009;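 active = 50% or more with normal probe brightness, or confirmed in later tests; inconclusive = above 50% with abnormal brightness, or retests that disagree; inactive = below 50% or failed in later tests; about a fifth of its hits are not listed in these tables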;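 also: calls also rest on retests at 20 µM and on dose response follow-up; 0% = protein and probe with vehicle and 100% = probe without protein; strong numbers were not always called active; many hits fall short of the cut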
eIF4H FP inh retest – further read-out of eIF4H FP inh, marked with its call; inhibition, %; compound at 20 µM; confirmation average;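 mean of two retest wells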
PABP FP inh retest – further read-out of PABP FP inh, marked with its call; inhibition, %; compound at 20 µM; confirmation repeats;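 mean of two retest wells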
MT1-MMP act inh RFP – also measured in MT1-MMP act inh; calls as there; RFP signal change, %; measured here: RFP expression control read;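 0 = vehicle wells; hits needed this value within 50% of zero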
* marks the source's active call; other numbers are inactive results; i = inactive; ? = inconclusive; nt = not tested or not shown.

SMILES	Rce1 inh	PABP FP inh	CSC inhib	MT1-MMP act inh	MT1-MMP act inh RFP	UUG fidelity	Env fusion inh	eIF4H FP inh	others
Cc1onc(-c2ccccc2Cl)c1C(=O)O/N=C(\N)c1ccc([N+](=O)[O-])o1	i	9	3	-1	3	nt	-26	2
Cc1sc2ncnc(N3CCCC(C)C3)c2c1C (stereo not given)	i	1	-20	-2	-12	-4	17	-10
CC(C(=O)O)n1nc(-c2ccccc2)c2ccccc21 (stereo not given)	i	2	0	1	3	-2	6	-2
COc1ccc(CN2C[C@H]3CON(C)[C@H]3C[C@H]2c2ccc(-c3ccccc3)cc2)cc1	nt	nt	nt	-1	-4	-3	-14	nt
COc1cc(O)c(C(CC(=O)N2CCOCC2)c2ccc3c(c2)OCO3)c(OC)c1 (stereo not given)	i	6	13	-1	3	-10	17	-4
Cc1cc(Cl)cc(C)c1OCCCCCn1ccnc1	i	11	57	1	-8	-23	32	-8
COC(=O)C1=C(N)Oc2cc(C)n(Cc3ccncc3)c(=O)c2C1c1cccnc1 (stereo not given)	i	nt	-8	3	7	-23	nt	nt
Clc1ccc2[nH]c3c(NCCCN4CCOCC4)ncnc3c2c1	i	-3	24	14	-1	0	nt	-1
O=C(O)Cn1c(P(=O)(O)c2ccccc2)nc2ccccc21	i	10	nt	3	1	-19	3	5
CCOC(=O)C1CCN(C(=O)Cn2cnc3sc(C)c(S(=O)(=O)N4CCC(C)CC4)c3c2=O)CC1	i	8	-2	-1	3	-10	-8	0
CC(=O)c1cccc(NC(=O)CN2CCN(Cc3ccccc3)CC2)c1	i	6	nt	-4	-2	0	-5	0
N#CCC(=O)N/N=C/c1cc([N+](=O)[O-])ccc1N1CCCC1	i	2	-6	5	1	-6	1	6
COc1ccc(/C=C2\Cc3ccccc3C2=O)cc1OC	i	7	-1	6	-8	-10	-2	-2
CCCOc1ccc(CSC2=NCCN2)cc1[N+](=O)[O-]	i	2	nt	1	9	-8	nt	2
Cc1ccc(C(=O)COC(=O)c2ccc3c(c2)C(=O)N(c2cccc4ncccc24)C3=O)cc1C	i	-5	41	-3	-1	-9	-39	-5
CCOC(=O)CNc1ncc(C(F)(F)F)cc1Cl	i	-6	-8	7	10	nt	7	-9
O=C(Nc1ccccc1F)c1oc2ccccc2c1NC(=O)C1CC1	i	15	-16	-2	1	-20	-11	0
CC(/C=C/c1ccccc1)=N\NC(=O)CCc1ccccc1	i	-7	-8	1	2	nt	9	-1
O=C(Nc1ccc(S(=O)(=O)N2CCOCC2)cc1)C1CCN(S(=O)(=O)c2ccc(F)cc2)CC1	i	nt	-6	-6	-14	-5	3	nt
S=c1[nH]nc(-c2ccco2)n1C1CCCCC1	i	-3	-11	1	0	nt	nt	-5
O=C(CN1CCC(NC(=O)c2ccco2)CC1)Nc1ccccc1C(F)(F)F	i	6	-17	4	3	-16	-1	4
O=S(=O)(Cc1ccccc1)Nn1cnnc1	i	11	-6	-1	-1	-5	nt	2
COC1=C/C(=C/c2c(O)c(C#N)c3ccccn23)C=CC1=O	i	39*	5	-19	3	nt	-33	68	eIF4H FP inh retest=7;PABP FP inh retest=79*
COc1ccc(CNC(=O)C/C(C)=N/NC(=O)c2ccc([N+](=O)[O-])cc2Cl)cc1	i	-9	nt	-2	1	-17	2	-2
O=C(COc1ccc(F)cc1)c1c(O)cc(O)cc1O	i	1	15	2	4	-6	-12	8

3 entries out of the list, arranged by length of the SMILES, smallest number first:
SMILES	Rce1 inh	PABP FP inh	CSC inhib	MT1-MMP act inh	MT1-MMP act inh RFP	UUG fidelity	Env fusion inh	eIF4H FP inh	others
CC(/C=C/c1ccccc1)=N\NC(=O)CCc1ccccc1	i	-7	-8	1	2	nt	9	-1
CC(=O)c1cccc(NC(=O)CN2CCN(Cc3ccccc3)CC2)c1	i	6	nt	-4	-2	0	-5	0
Cc1onc(-c2ccccc2Cl)c1C(=O)O/N=C(\N)c1ccc([N+](=O)[O-])o1	i	9	3	-1	3	nt	-26	2

The listing picks up, starting 3 compounds before the break.
SMILES	Rce1 inh	PABP FP inh	CSC inhib	MT1-MMP act inh	MT1-MMP act inh RFP	UUG fidelity	Env fusion inh	eIF4H FP inh	others
COC1=C/C(=C/c2c(O)c(C#N)c3ccccn23)C=CC1=O	i	39*	5	-19	3	nt	-33	68	eIF4H FP inh retest=7;PABP FP inh retest=79*
COc1ccc(CNC(=O)C/C(C)=N/NC(=O)c2ccc([N+](=O)[O-])cc2Cl)cc1	i	-9	nt	-2	1	-17	2	-2
O=C(COc1ccc(F)cc1)c1c(O)cc(O)cc1O	i	1	15	2	4	-6	-12	8
CCN(CC(=O)Nc1ccc(NC(C)=O)cc1)C(=O)COc1ccccc1-c1ccccc1	nt	nt	-7	2	4	0	nt	nt
CC(C)Oc1ccc(NC(N)=O)cc1	i	3	-7	5	5	3	-71	4
CC(=O)c1ccc(S(=O)(=O)Nc2ccc(C(=O)NCC(c3ccccc3)N(C)C)cc2)cc1 (stereo not given)	i	13	-1	-1	0	-12	10	20
CN(C)C(=O)c1cc(-c2ccccc2)no1	i	4	-6	-3	-2	-1	-21	5
COc1ccc(N2CCN(C(=O)c3ccc(N4CCCCS4(=O)=O)cc3)CC2)cc1	i	1	-11	1	-4	-1	-2	7
CC1(C)NC(=O)N(CC(O)CN2CCCCC2)C1=O (stereo not given)	i	2	-4	10	6	-11	-57	-9
O=C(CSc1nc(-c2ccco2)cc(C(F)(F)F)n1)NCCCn1ccnc1	i	-4	-11	9	-6	6	-8	1
CC(=O)N1CCN(c2ccccc2NC(=O)c2cccc3c(Cl)cccc23)CC1	i	-1	3	-5	-7	-4	6	-3
O=C1[C@H]2[C@H](C=CC[C@H]2C(=O)N2CCN(c3ccccc3)CC2)CCN1Cc1ccc(Cl)c(Cl)c1	i	nt	10	-1	-19	-16	20	nt
COc1ccc(-c2noc(CSc3nc(N)c(-c4ccccc4)c(=O)[nH]3)n2)cc1OC	i	-2	4	2	0	10	nt	-6
O=S1(=O)N=C(Nc2ccc(O)c(CN3CCCCC3)c2)c2ccccc21	i	0	-2	5	-1	-14	nt	0
O=C(Nc1ccccc1O)c1nc(Cl)ccc1Cl	i	3	-7	-4	2	nt	1	11
Cc1cc(NC(=O)COC(=O)c2ccccc2Cl)no1	nt	nt	-1	2	0	-26	-3	nt
CCCCOc1ccc(C(=O)NCC(=O)NC2CC2)cc1	nt	nt	nt	6	1	-14	-16	nt
O=C(Cc1ccc([N+](=O)[O-])cc1)OCc1c(F)cccc1Cl	i	-4	-15	0	4	-11	33	-12
COCCCNC(=O)C[C@H]1C[C@H](C(=O)N2CCCCC2)[C@@]2(C)c3[nH]c4cc(-c5ccco5)ccc4c3CCN2C1=O	nt	nt	nt	-3	-2	15	-29	nt
CCCCc1nc2cc(C(=O)N(C)C3CCOCC3)ccc2o1	i	-16	8	-2	-2	-7	-154	-5
O=C(Nc1nnc(C2CC2)s1)c1ccco1	i	5	-4	3	5	nt	2	7
CNc1cncc(-c2ccc(F)cc2F)n1	nt	nt	nt	-2	0	-9	-31	nt
Cc1noc(C(=O)Nc2ccc3c(c2)OCO3)c1Cl	i	30	0	5	8	-18	2	2
CN(C)C(=S)Nc1ccc2c(c1)OCCO2	i	3	-12	-2	-7	-21	-9	-16
COc1ccc(N2C(=NC(=O)CC3CCCCC3)SC3CS(=O)(=O)CC32)cc1 (stereo not given)	i	0	-14	-5	0	-18	11	-2
Cc1ccc(CONC(=O)c2ccccc2)cc1	i	-5	-13	5	0	0	-21	-7
CCC(=O)c1ccc(OCC(O)Cn2nc(C)c(C(C)=O)c2C)cc1 (stereo not given)	i	-13	0	2	1	nt	13	14
Nn1c(SC/C=C/c2ccccc2)nnc1-c1cccnc1	i	4	-7	0	5	-19	32	12

(next part)
SMILES	Rce1 inh	PABP FP inh	CSC inhib	MT1-MMP act inh	MT1-MMP act inh RFP	UUG fidelity	Env fusion inh	eIF4H FP inh	others
O=c1cc(CSc2nnc(COc3cccc4ccccc34)o2)c2ccccc2[nH]1	i	11	21	2	-1	nt	19	-4
CC12CCC(=O)N1C(C(=O)NCCN1C(=O)S/C(=C\c3ccccc3F)C1=O)CS2 (stereo not given)	i	nt	-8	0	0	nt	-26	nt
COc1cccc(S(=O)(=O)N2CCN(C(=O)c3ccco3)CC2)c1	i	4	-8	1	7	-9	18	0
COCCOC1CCN(C(=O)C2CCC(=O)N(CCc3ccc(OC)cc3)C2)CC1 (stereo not given)	i	-15	8	-1	2	-16	2	-4
COc1cccc(NC(=O)C(NC2CCCC2)c2ccccc2)c1 (stereo not given)	i	2	-11	-4	2	nt	nt	-1
Cc1cccc(-n2cnc(C(=O)O)c2)n1	i	23	-10	-7	3	6	-2	16
O=C(Nc1nnc(-c2ccncc2)o1)c1ccccc1	i	-4	12	0	1	nt	-2	8
Cc1sc2ncn3c(C)nnc3c2c1C	i	-6	5	5	6	-23	nt	-2
O=C(N/N=C/c1ccccc1)C(=O)N/N=C/c1ccccc1	i	-4	-1	0	3	-14	3	7
Cc1cccc(NC(=S)NC(=O)/C=C/c2ccco2)c1	i	18	3	-4	-4	-18	-50	37
Cc1ccc(CNC(=O)CN(C)S(=O)(=O)c2cccs2)cc1	i	?	-8	2	4	1	-4	-1
CCN(CC)S(=O)(=O)c1cc(NC(=O)COC(=O)c2sc3ccccc3c2Cl)ccc1C	i	-1	-6	0	-3	-20	4	-4
COc1ccccc1NC(=O)CN1C(=O)CCS(=O)(=O)c2ccccc21	i	2	-12	1	3	-9	nt	6
COc1cccc(N2CCN(C(=S)NCc3ccco3)CC2)c1	i	6	-10	2	0	-20	17	-13
Cc1ccc(-c2cc(C(F)F)nc(NCc3cccnc3)n2)cc1	i	-5	16	-2	-11	nt	-28	-10
COc1ccc(COC(=O)c2ccc(S(=O)(=O)N3CCCCC3)cc2)cc1OC	nt	nt	-12	3	5	-13	-18	nt
CCc1ccc(CCC(=O)N2CCN(S(=O)(=O)c3ccc(Br)cc3)CC2)cc1	nt	nt	nt	-4	-8	-15	37	nt
COc1ccc(C(CNC(=O)CCNS(=O)(=O)c2ccccc2C(F)(F)F)N2CCOCC2)cc1 (stereo not given)	nt	nt	nt	0	-4	-9	5	nt
O=S(=O)(c1ccc(C(F)(F)F)cc1)N1CCN(CCc2ccccc2)CC1	i	0	-7	5	2	3	1	-7
COc1ccc(NC(=O)Cc2ccc(Cl)cc2)cc1S(=O)(=O)N1CCCCC1	nt	nt	nt	3	-16	-13	4	nt
CC1CCN(C(=O)c2ccccc2NC(=O)c2cccc(S(=O)(=O)N(C)C)c2)CC1	nt	-10	2	-2	2	-3	43	-5
CCOc1ccc(C(=O)NCC(=O)NC(C)CCc2ccccc2)cc1OCC (stereo not given)	i	-6	nt	-1	-4	-4	10	1
O=C(Nc1ccc2c(c1)OCO2)c1cc(C2CC2)on1	i	5	98*	3	1	-31	-76	-2
N#Cc1ccc(-n2c(-c3ccccc3)nnc2-c2ccccc2)cc1C#N	i	-7	6	-1	-4	2	nt	2
